Bioassay records (PubChem)
CtBP-E1A blk = blocks the CtBP interaction with E1A; AlphaScreen GST-E1A/His-CtBP binding, 1536-well; stronger effect = lower value; control for the full effect not named in the record; activity change, % (no concentration beside the values); actives 0.49% (n = 340,000); in the data active means activity change below about -65%; inconclusive means about -30% to -65%; inactive means above about -30%; further: on the % scale 0 is the no-effect control and ±100 the full control effect; compound concentration not given in the record
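Protein mix (5X: 125 nM each GST-E1A, His-CtBP) was incubated with pinned compound 2 h at 37 deg C in dark, in 50 mM Tris pH 8.0 buffer with 300 mM NaCl. Glutathione donor and nickel acceptor beads followed; AlphaScreen signal read after 1 h.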
TRPML1 agonist = activates the human TRPML1 channel | TRPML1-expressing cells, Ca2+ dye fluorescence, FDSS; host cell line not named in the record; reference of the full effect not given here | Q9GZU1 | activation, % (no concentration beside the values) | actives 0.12% (n = 410,000); in the data active = activation above about 50%; inconclusive = about 30% to 50%; inactive = below about 30%; further: 0% is about no effect; the text of the record puts the active cut at 80%
Target sequence (Q9GZU1 whole entry, looked up): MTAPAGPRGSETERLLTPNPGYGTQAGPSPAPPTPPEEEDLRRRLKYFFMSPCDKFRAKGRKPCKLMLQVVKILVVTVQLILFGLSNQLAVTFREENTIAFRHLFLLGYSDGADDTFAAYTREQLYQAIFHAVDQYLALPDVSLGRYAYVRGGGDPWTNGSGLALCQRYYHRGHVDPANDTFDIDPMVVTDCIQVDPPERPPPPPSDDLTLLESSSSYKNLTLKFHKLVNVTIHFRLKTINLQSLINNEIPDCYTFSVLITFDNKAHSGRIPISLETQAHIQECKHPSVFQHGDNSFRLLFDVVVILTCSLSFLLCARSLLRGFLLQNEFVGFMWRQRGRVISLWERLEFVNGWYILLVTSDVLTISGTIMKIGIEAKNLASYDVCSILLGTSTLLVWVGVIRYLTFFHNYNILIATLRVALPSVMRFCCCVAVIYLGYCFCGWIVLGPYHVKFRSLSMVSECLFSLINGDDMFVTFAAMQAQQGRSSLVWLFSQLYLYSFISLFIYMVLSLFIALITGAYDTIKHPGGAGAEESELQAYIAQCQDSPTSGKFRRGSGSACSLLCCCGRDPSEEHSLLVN
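TRPML1-DL cells, Tet-induced overnight (~16 h, 37 degrees C), loaded 45-90 min at room temperature with Ca8 no-wash calcium dye plus quencher. FDSS fluorescence: 10 s baseline, compound pin-transfer, 110 s agonist read, then EC80 54-4 (4uM final) and 110 s antagonist read.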
TRPML1 blocker = blocks the human TRPML1 channel. Q9GZU1. TRPML1-inducible cells, Ca2+ dye fluorescence, FDSS; stronger effect = lower value; inhibition of EC80 agonist-evoked calcium signal. actives 0.02% (n = 390,000). AID 624415. activity change, negative = inhibition, % (no concentration beside the values); in the data active means activity change below about -50%; inconclusive means about -30% to -50%; inactive means above about -30%;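 further: stimulus is agonist 54-4 at its EC80 concentration; on the % scale 0 is the no-effect control and ±100 the full control effect; compound concentration not given in the record; the text of the record puts the active cut at -80%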
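Tet-induced TRPML1-DL cells loaded with Ca8 no-wash calcium dye were read kinetically on FDSS. Compound addition was followed by EC80 agonist 54-4 (4 uM final); inhibition was read over 110 s.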
TRPV1 potentiator = human TRPV1 potentiation. Q8NER1. TRPV1-expressing cells, Fluo-8 calcium influx, capsaicin EC20 potentiation; host cell line not named in the record; control for the full effect not named in the record. potentiation, % at 8.33 µM. actives 0.02% (n = 320,000); active means potentiation above 80%; inconclusive means 30% to 80%; inactive means below 30%; further: 0% is about no effect
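Cells expressing TRPV1 were dye-loaded with Fluo-8 and read kinetically: 10 s baseline, 3 min after compound (agonist portion), then 2 min after EC20 capsaicin (allosteric enhancer portion). Calcium-bound dye fluorescence at 480/520 nm.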
Six1-Eya2 blk = inhibitors of human Six1/Eya2 interaction. Q15475+O00167. activity change, % (test concentration not listed). actives 0.56% (n = 360,000). AlphaScreen GST-Six1/His-Eya2 binding, biochemical; stronger effect = lower value; control for the full effect not named in the record; in the data active = activity change below about -65%; inconclusive = about -30% to -65%; inactive = above about -30%; further: on the % scale 0 is the no-effect control and ±100 the full control effect; compound concentration not given in the record
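AlphaScreen with GST-Six1 and His-Eya2 (5X mix: 250 nM and 500 nM), glutathione donor and nickel acceptor beads; buffer 50 mM Tris pH 8.0, 300 mM NaCl, 1 mM TCEP; 1 h at 37 C in the dark.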
D2 potentiator = positive allosteric modulators of human D2 dopamine receptor | P14416 | DiscoveRx D2 beta-arrestin cells, luminescence, 90 min; 100% = 57 uM dopamine signal | potentiation, % (no concentration beside the values) | actives 0.23% (n = 360,000) | AID 624464; active = potentiation of 50% or more; inconclusive = 30% to 50%; inactive = 30% or less;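 further: compound concentration not given in the record; tested on top of an EC20 dose of dopamine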
Target sequence (P14416 whole entry, looked up): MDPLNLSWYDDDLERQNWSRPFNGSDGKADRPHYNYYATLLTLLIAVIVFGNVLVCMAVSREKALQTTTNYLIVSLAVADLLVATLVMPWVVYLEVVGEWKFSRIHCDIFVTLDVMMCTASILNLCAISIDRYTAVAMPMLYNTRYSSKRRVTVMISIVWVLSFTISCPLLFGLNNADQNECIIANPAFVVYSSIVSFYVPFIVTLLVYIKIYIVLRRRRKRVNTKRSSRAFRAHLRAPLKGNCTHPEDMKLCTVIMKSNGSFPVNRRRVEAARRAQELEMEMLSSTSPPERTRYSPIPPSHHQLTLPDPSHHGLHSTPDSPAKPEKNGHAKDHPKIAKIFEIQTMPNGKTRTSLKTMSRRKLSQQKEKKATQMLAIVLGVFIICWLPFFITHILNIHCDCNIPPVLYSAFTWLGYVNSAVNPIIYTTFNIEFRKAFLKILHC
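D2 cells co-treated with compound plus 50 nM dopamine (EC20) for 90 min at 37 deg C to detect potentiation. Beta-arrestin recruitment was read as enzyme-fragment luminescence after 1 h at ambient temperature. Full response was set by 57 uM dopamine.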
An asterisk follows results filed as active; u = inconclusive; x = no result given.

SMILES	CtBP-E1A blk	TRPML1 agonist	TRPML1 blocker	TRPV1 potentiator	Six1-Eya2 blk	D2 potentiator
CC(C)CC(=O)N=C1SC2CS(=O)(=O)CC2N1CCc1ccccc1 (stereo unspecified)	-2	0.2	-14	12	2	-1
CC(C)C(C(=O)NC(C)(C)C)N1C(=O)c2ccccc2C1=O (stereo unspecified)	2	-0.1	-5	2	2	2
O=C(Nc1cc(Cl)c(Cl)cc1Cl)c1cccnc1	4	1.0	-20	0	-2	-1
CC1C/C(=N/NC(=O)c2cccc(F)c2)c2ccc(O)cc2C1 (stereo unspecified)	2	0.6	10	3	1	-1
CCn1c(SCc2ccc(C(=O)Nc3nccs3)cc2)nnc1-c1ccc(NC(C)=O)cc1	u	0.6	-6	-7	u	-18
OC1(c2cn(Cc3ccccc3)nn2)CCCCC1	7	1.0	15	0	2	5
COc1ccccc1CCC(=O)Nc1ccc2c(c1)c(=O)n(C)n2-c1cccs1	-11	-0.4	x	x	1	-3
Cc1nn(C)c(=O)n1-c1ccccc1	-13	-0.6	-13	-17	8	9
CCOC(=O)c1cnc(-c2ccccc2)nc1Oc1ccc(Cl)cc1	7	-0.9	-3	x	2	-7
Cc1cc(C(=O)Nc2sccc2C#N)c2ccccc2n1	-15	0.7	-3	7	-17	5
O=C1c2ccccc2NC(c2cccc([N+](=O)[O-])c2)N1CCc1ccccc1 (stereo unspecified)	-10	5.2	41	18	-15	4
CCOc1ccccc1NC(=O)COC(=O)c1c[nH]c2ccccc12	-16	1.5	27	11	-2	-10
COc1cccc(NC(=O)C2CCC(CNS(=O)(=O)c3cccs3)CC2)c1 (stereo unspecified)	-11	1.4	2	-3	-5	-4
C=CCn1cc(/C=C2/NC(=O)NC2=O)c2ccccc21	-2	-0.7	7	u	0	-3
COc1ccc(Cc2nc3ccc(C(=O)N(C)Cc4nccn4C)cc3o2)cc1	0	-1.0	-9	x	1	-22
O=C(NNC1=C(C(=O)C(F)(F)F)CCC1)c1ccncc1	x	-0.8	-11	-27	0	-3
CCSc1ncc(/C=N/Nc2ccc(F)cc2)n1C	-9	-0.7	6	1	-20	3
Cc1ccc(C(=O)OCC(=O)N(C)C2CCS(=O)(=O)C2)cc1[N+](=O)[O-] (stereo unspecified)	x	1.1	16	6	-6	-1
CC(C)NC(=O)N(C)C[C@H]1Oc2c(NC(=O)c3ccc(-c4nccs4)cc3)cccc2C(=O)N([C@@H](C)CO)C[C@H]1C	u	0.6	-21	x	u	-11
Cc1ccc(NNC(N)=S)cc1Cl	0	-0.2	7	2	1	-12
CC1CCN(C(=O)c2ccc(N3C(=O)C4CCC(C)CC4C3=O)cc2)CC1 (stereo unspecified)	10	-0.1	8	-9	5	1
Cn1c(-c2ccsc2)c(-c2cccs2)c2cc(Br)ccc21	2	-0.8	12	9	2	-1
CN(CCc1ccccn1)C(=O)CCC1CCCN(C(=O)c2c3c(nn2C)CCCC3)C1 (stereo unspecified)	3	-0.4	-10	10	-8	-8
CC1(C)[C@H]2CC=C(CN3CCC(N4CCC(C(=O)N5CCCC5)CC4)CC3)[C@@H]1C2	5	-0.1	-2	-3	-4	-8
O=C(CNC(=O)c1ccccc1)Nc1cccc(C(F)(F)F)c1	-10	-0.1	-17	-11	2	-19
Cn1c(NCc2ccco2)nc2c1c(=O)n(Cc1ccc(Cl)c(Cl)c1)c(=O)n2C	-1	-0.5	-7	-15	-8	-1
Cc1ccc(C(=O)Oc2oc(-c3ccco3)nc2C=Nc2ccc(Cl)cc2)cc1	1	0.6	1	-26	-1	-17
COc1ccc(C(=O)C2CCCN(C(=O)c3csc(C(C)=O)c3)C2)c(C)c1 (stereo unspecified)	-1	0.8	18	1	7	-8
CCCc1nc2ccccc2n1CCOC	10	0.3	14	-1	5	-3
CCN1C(=O)[C@H]2[C@@H](c3ccccc3)N[C@]3(CCCN(Cc4ccccc4)C3=O)[C@H]2C1=O	6	-0.6	1	x	5	0
CCOC(=O)c1cc(-c2ccc(C#N)cc2)nc2c1c(C)nn2CCC#N	3	-0.3	1	0	9	10
O=C(NC(=S)Nc1ccccc1)c1cccs1	-2	1.1	14	22	-8	-5
COC(=O)c1ccc(C)c(-n2c(C)cc(C=O)c2C)c1	6	-0.7	-6	-13	5	7
Cc1ccc(S(=O)(=O)NCCC(=O)N2CCN(C/C=C/c3ccccc3)CC2)cc1	x	-0.1	3	5	0	-32
CCc1nnc(NC(=O)CSc2nnc(-c3ccc(NS(=O)(=O)c4ccccc4)cc3)o2)s1	-15	0.5	-14	-10	-6	-12
Cc1ccc2c(c1)C(c1ccccc1)N(C(=O)c1ccc(S(=O)(=O)N3CCOCC3)cc1)CC(=O)N2 (stereo unspecified)	1	1.2	-4	-4	-21	-6
C/C(=N\NC(=O)c1ccc(C(=O)N/N=C(\C)c2ccco2)o1)c1ccco1	1	-0.5	-22	-9	u	0
Cn1ccnc1SCC(=O)c1ccc(O)cc1	-1	x	x	x	-9	-2
CCN(CC)CCn1c(SCC(=O)NCc2ccccc2)nc2c(sc3ccccc32)c1=O	-3	-0.7	9	-10	4	-3
CCN1CCc2nc3ccccc3c(C(=O)Nc3ccc(F)cc3)c2C1	x	0.4	-6	-8	6	-2
O=C(Nc1cc(F)ccc1F)c1cccc(-n2cnnn2)c1	-7	-0.3	-21	-9	8	4
COC(=O)c1sc(=S)n(-c2ccccc2OC)c1N	0	-0.4	-14	-3	0	-2
CCC(Oc1ccccc1OC)C(=O)Nc1ccc2c(c1)OCCO2 (stereo unspecified)	4	0.8	-19	-1	5	-2
Cc1ccc(C)c(N2CCN(C(=O)c3ccc4c(=O)n5c(nc4c3)CCCCC5)CC2)c1	-22	1.8	22	19	-21	-6
O=C(c1ccccc1Br)N1CCN(Cc2ccc3c(c2)OCO3)CC1	0	0.6	-8	-5	0	-16
COc1ccc(N2CCN(CCNC(=O)Nc3cccc(C)c3C)CC2)cc1	x	0.4	-22	3	6	-5
CCc1nc2c(OCc3ccc(Cl)cc3)cccn2c1N(C)C(=O)c1ccco1	-30	0.8	x	x	-24	-14
COc1ccc(NC(=O)C[C@@H]2C(=O)N(c3ccc(OC)cc3)CC2(C)C)cc1	-18	1.1	-6	x	3	-2
C1=C(c2ccccc2)Nc2nnnn2C1	10	1.8	10	-29	3	-14
Cc1cc(C)nc(NS(=O)(=O)c2ccc(NC(=O)CSc3nc(-c4ccccc4)c(C#N)c(=O)[nH]3)cc2)n1	-14	0.2	6	-55	-12	-2
COc1cccc(-c2c(C(=O)N/N=C(\C)c3ccco3)nnn2-c2nonc2N)c1	x	0.4	-14	17	-13	-10
COc1ccc(NC(=O)CS(=O)c2cccc(Cl)c2)cc1 (stereo unspecified)	5	1.7	10	2	1	-15
Cc1cc(F)ccc1C(O)c1ncc(-c2ccccc2F)[nH]1 (stereo unspecified)	-7	-1.2	x	x	2	-11
Cc1cc2ncn(/N=C/c3ccc4c(c3)OCO4)c2cc1C	0	0.3	4	-6	14	-3
CCC(CC)C(=O)N1N=C(c2ccc(NS(C)(=O)=O)cc2)CC1c1ccccc1 (stereo unspecified)	x	0.6	10	u	3	-12
COc1cc(NC(=O)CCC(=O)Nc2ccc3nc(N4CCOCC4)cc(C)c3c2)cc(OC)c1OC	-1	-0.6	3	-7	-22	-10
COc1ccc(CC(=O)NCC2CCCN(Cc3ccc(F)cc3F)C2)cc1 (stereo unspecified)	-1	0.6	6	-8	1	-4
Cn1c(=O)[nH]c(=O)c2c1[nH]c(=S)n2Cc1ccccc1	4	3.1	0	27	2	-2
CN(Cc1ccccc1)C(=O)c1ccc(NC(=O)C2CCCN(C(=O)OC(C)(C)C)C2)cc1 (stereo unspecified)	2	1.1	-2	x	0	0
O=C(C[C@@H]1C/C=C\C[C@H](Cc2ccc(F)cc2)C(=O)OCCNC1=O)NCCO	4	-0.2	15	x	-2	-2
CC(C)(C)[C@H]1C=C(C(=O)Nc2ccccc2)O[C@@H](OCCCCO)C1	6	-0.8	19	x	3	-11

Grouped by structure: the entries above with two or more sulfur atoms (9)
SMILES	CtBP-E1A blk	TRPML1 agonist	TRPML1 blocker	TRPV1 potentiator	Six1-Eya2 blk	D2 potentiator
CC(C)CC(=O)N=C1SC2CS(=O)(=O)CC2N1CCc1ccccc1 (stereo unspecified)	-2	0.2	-14	12	2	-1
CCn1c(SCc2ccc(C(=O)Nc3nccs3)cc2)nnc1-c1ccc(NC(C)=O)cc1	u	0.6	-6	-7	u	-18
COc1cccc(NC(=O)C2CCC(CNS(=O)(=O)c3cccs3)CC2)c1 (stereo unspecified)	-11	1.4	2	-3	-5	-4
Cn1c(-c2ccsc2)c(-c2cccs2)c2cc(Br)ccc21	2	-0.8	12	9	2	-1
O=C(NC(=S)Nc1ccccc1)c1cccs1	-2	1.1	14	22	-8	-5
CCc1nnc(NC(=O)CSc2nnc(-c3ccc(NS(=O)(=O)c4ccccc4)cc3)o2)s1	-15	0.5	-14	-10	-6	-12
CCN(CC)CCn1c(SCC(=O)NCc2ccccc2)nc2c(sc3ccccc32)c1=O	-3	-0.7	9	-10	4	-3
COC(=O)c1sc(=S)n(-c2ccccc2OC)c1N	0	-0.4	-14	-3	0	-2
Cc1cc(C)nc(NS(=O)(=O)c2ccc(NC(=O)CSc3nc(-c4ccccc4)c(C#N)c(=O)[nH]3)cc2)n1	-14	0.2	6	-55	-12	-2

3 of the entries above in order of their number in D2 potentiator, highest first.
smiles,CtBP-E1A blk,TRPML1 blocker,Six1-Eya2 blk,D2 potentiator
CN(Cc1ccccc1)C(=O)c1ccc(NC(=O)C2CCCN(C(=O)OC(C)(C)C)C2)cc1 (stereo unspecified),2,-2,0,0
Cc1cc(C)nc(NS(=O)(=O)c2ccc(NC(=O)CSc3nc(-c4ccccc4)c(C#N)c(=O)[nH]3)cc2)n1,-14,6,-12,-2
COc1ccc(CC(=O)NCC2CCCN(Cc3ccc(F)cc3F)C2)cc1 (stereo unspecified),-1,6,1,-4
